# HPGD block – HPGD (human) dehydrogenase inhibition; P15428; Potency, µM, for the others: at the top dose activity change, negative = inhibition, usual class: inhibitors; 150,000 tested, 4.3% active; purified HPGD, NADH fluorescence kinetic, PGE2 substrate; active = well fitted inhibition curve with a large enough effect (not every such curve was filed as active); inconclusive = small, poorly fitted or top-dose-only effect, or another doubt; inactive = no such curve, though single readings can be large or run the other way;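 note: top concentration of the series not given in the record; plate controls included wells without enzyme; inactives centre near -10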
# Target sequence (P15428 whole entry, looked up): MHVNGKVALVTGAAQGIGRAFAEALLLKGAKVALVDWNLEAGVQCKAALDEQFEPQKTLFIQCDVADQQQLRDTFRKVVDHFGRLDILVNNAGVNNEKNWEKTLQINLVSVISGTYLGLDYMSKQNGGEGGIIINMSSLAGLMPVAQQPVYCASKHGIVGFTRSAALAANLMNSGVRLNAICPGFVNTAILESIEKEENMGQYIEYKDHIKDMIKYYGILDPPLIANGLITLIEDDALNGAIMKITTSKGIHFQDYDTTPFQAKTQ
#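 20 nM HPGD preincubated 15 min at room temperature with compound in 50 mM Tris-HCl pH 8, 0.01% Tween 20. Started with 1 mM NAD+ and 30 uM prostaglandin E2; NADH fluorescence (360/450 nm) read 5 times over 30-s intervals, last minus first.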
# * = called active by the depositor; ? = inconclusive; & = joins results of further samples. % is set by controls: 0 for no effect and ±100 for the full control effect; potency is the fitted concentration of half-maximal effect. This is a subset; rates above refer to the full screens.
# A first look:
HPGD block	Structure
-3%	Cc1cccc(C(c2c(C)nn(-c3ccccc3)c2N)c2c(C)nn(-c3ccccc3)c2N)c1
-11%	C/C(=N\NC(=O)c1ccccc1)c1ccc2c(c1)OCO2
-2%	Cn1nnnc1SCCOc1ccc(C#N)cc1
-4%	CC(C)(/C=N/NC(=O)CSCc1ccccc1Cl)CCC#N
-22%	O=C(NCCC1=CCCCC1)c1ccc(F)cc1
14µM*	CCOCC(=O)Nc1ccc2c(c1)OCCO2

# This part in full, from the first entry:
HPGD block	Structure
-3%	Cc1cccc(C(c2c(C)nn(-c3ccccc3)c2N)c2c(C)nn(-c3ccccc3)c2N)c1
-11%	C/C(=N\NC(=O)c1ccccc1)c1ccc2c(c1)OCO2
-2%	Cn1nnnc1SCCOc1ccc(C#N)cc1
-4%	CC(C)(/C=N/NC(=O)CSCc1ccccc1Cl)CCC#N
-22%	O=C(NCCC1=CCCCC1)c1ccc(F)cc1
14µM*	CCOCC(=O)Nc1ccc2c(c1)OCCO2
-7%	COc1cc(C2CC(=O)Oc3cc(O)ccc32)cc(OC)c1OC (centres undefined)
2%	CCNC(=O)NC(=O)C(C)SCc1ccccc1C (centres undefined)
0%	CCCN(CCO)Cc1cccc(Cl)c1
-6%	O=c1c2cc(Br)ccc2nc2n1CCCCC2
-13%	c1nnc(NC2=NCCC2)s1
?	CCc1ccccc1-n1c(-c2ccncc2)n[nH]c1=S
?	O=C(NCCN1CCCCC1)c1ccc(=O)oc1
?	Cc1ccc(/C=C/C(O)=C2/C(=O)N(C)C3(C)CC2c2ccccc2O3)cc1 (centres undefined)
-9%	O=C(N1CCOCC1)C12CCC3CC(CC(C3)C1)C2
-15%	CCOc1ccc(Cn2c3ccc(OC)cc3c3nc4ccccc4nc32)cc1
-13%	COc1cc(NS(=O)(=O)c2ccc(NC(=O)C3CCCO3)cc2)nc(OC)n1 (centres undefined)
?	CCCn1c(=O)c(C(=O)Nc2ccccc2C(=O)OCC)c(O)c2ccccc21
18µM*	O=C(Nc1nccs1)c1cc(-c2ccccc2)nc2ccccc12
-13%	CC(C)(C)OC(=O)NCCCC1=CC2=CC(=O)C(C)(O)C(=O)C2=CO1 (centres undefined)
-11%	CCOC(=O)c1nnc(-c2ccccc2)o1
-13%	COc1ccc(OC)c(-c2csc(NC(=O)CSc3ccc([N+](=O)[O-])cc3)n2)c1
?	COc1cccc(C(=O)/C=C/Nc2cc(C)ccc2O)c1
-13%	CC1Cc2cc(/C(O)=C3/C(=O)C(=O)N(CC4CCCO4)C3c3ccco3)ccc2O1 (centres undefined)
-7%	Cc1cccc(NS(=O)(=O)c2cnc[nH]2)c1
-3%	CC(=O)N1CCc2cc(S(=O)(=O)NCCC(=O)N3CCN(Cc4ccccc4)CC3)ccc21
-7%	COC(=O)C(NC(C)=O)(Nc1nc2ccc(C)cc2s1)C(F)(F)F (centres undefined)
-16%	Cc1ccccc1NC(=O)CSc1nc(COc2ccccc2)nc2ccccc12
-2%	CCOc1ccc(S(=O)(=O)N2CCN(c3ccc(OC)cc3)CC2)c2cccnc12
-11%	O=C(NCc1ccco1)Oc1ccccc1
-22%	Cc1ccc(-n2nnnc2Sc2ccc(S(=O)(=O)NCCN(C)C)cc2[N+](=O)[O-])cc1
-13%	CC1CCCCC1N=CC1=C(O)CC(C)(C)CC1=O (centres undefined)
14µM*	Cc1ccc(C(=O)CC(=O)c2cccc(F)c2)c(O)c1
-9%	O=C(CNS(=O)(=O)c1ccccc1)Nc1ccc(C(F)(F)F)cc1
-5%	COc1ccccc1Nc1nnc(SCC(=O)N2CCCC2=O)s1
-4%	Cn1nc([N+](=O)[O-])nc1Oc1ccc2ccccc2c1
-7%	CCN(CC)S(=O)(=O)c1ccc(C(=O)OCCNC(=O)c2cccnc2)cc1
?	O=C(NCCc1ccccc1)c1nc2nc(-c3cccs3)cc(C(F)(F)F)n2n1
-4%	CCN(CC)C1=NC=CC(c2ccccc2)=CC1C (centres undefined)
-6%	CC1(C)Cc2cccc(OCC(=O)Nc3cccnc3Cl)c2O1
-12%	Cn1c(=O)n(-c2cccc(Cl)c2)c(=O)c2c3c(sc21)COC(C)(C)C3
?	Cc1csc(SCC(=O)NC2CCCCC2)n1
-21%	CN1CCN(C(=S)SCC(=O)Nc2nc(-c3ccccc3)c(-c3ccccc3)o2)CC1
-15%	CCCCn1c(SCC(=O)NC(=O)NCc2ccco2)nc2cc(S(N)(=O)=O)ccc21
-11%	Cc1cccc2cc(=O)[nH]c(C)c12
-12%	Cc1ccc(S(=O)(=O)c2cc(N3CCOCC3)nc(-c3ccccc3)n2)cc1
-15%	S=C(NCCN1CCOCC1)N/N=C/c1c2ccccc2cc2ccccc12
?	Oc1ccccc1-c1nnc(COc2ccc(Cl)cc2Cl)o1
-15%	N#CCc1c(C#N)c(N)nc(N2CCN(c3ccc(F)cc3)CC2)c1C#N
-11%	COc1ccc2c(c1)SCC/C2=C\CN1C(=O)CCC1=O
-10%	CCOC(=O)c1c(C)[nH]c(C(=O)CSc2nnc(C3CC3)n2N)c1C
-3%&-16%	O=c1cc(-c2ccccc2Cl)oc2cccc(O)c12
-12%	CCN1CCN(S(=O)(=O)c2ccc(OC)c(Br)c2)CC1
-22%	O=C(CSc1ccc2nnc(-c3ccccc3)n2n1)N1CCCc2ccccc21
3.2µM*	Nc1ccccc1S[C@@H](C[N+](=O)[O-])c1ccc2c(c1)OCO2
-13%	CCSc1nc2ccccc2n1CC(N)=O
-21%	Cc1occc1C(=O)NCc1ccccc1
-22%	CC(=O)c1cccc(NC(=O)N2CCCC2C(=O)NCc2ccc(C)cc2)c1 (centres undefined)
-6%	Cc1ccc(-c2nnc(SCC(=O)Nc3ccc4c(c3)OCCO4)n2N)cc1
-9%	Cn1ncc(Br)c1C(=O)N1CCN(C(=O)c2ccco2)CC1

# Compounds from the list above with a thiophene ring, fused or not, in the order listed:
HPGD block	Structure
?	O=C(NCCc1ccccc1)c1nc2nc(-c3cccs3)cc(C(F)(F)F)n2n1
-12%	Cn1c(=O)n(-c2cccc(Cl)c2)c(=O)c2c3c(sc21)COC(C)(C)C3

# 3 structures already listed, sorted by length of the SMILES, descending.
HPGD block	Structure
-12%	Cc1ccc(S(=O)(=O)c2cc(N3CCOCC3)nc(-c3ccccc3)n2)cc1
-22%	CC(=O)c1cccc(NC(=O)N2CCCC2C(=O)NCc2ccc(C)cc2)c1 (centres undefined)
?	Oc1ccccc1-c1nnc(COc2ccc(Cl)cc2Cl)o1

# Additional records:
HPGD block	Structure
-28%	Cc1ccc(S(=O)(=O)N/N=C\c2cc3c(cc2[N+](=O)[O-])OCO3)cc1
-9%	CC(=O)NC1=NC(=O)/C(=C/N2CCOCC2)S1
-14%	COc1ccc(CCNC(=O)CSc2nnc(-c3cccc(F)c3)o2)cc1OC
0%	Cc1nnc(SCC(=O)NCCN2C(=O)CSC2=O)s1
-1%	COc1ccc(CNC(=O)C2CCNCC2)cc1
32µM*	c1ccc(Cn2nnc3c(N4CCc5ccccc5C4)ncnc32)cc1
-10%	COc1ccc(/C=N/NC(=O)CCc2c(C)n[nH]c2C)cc1O
-7%	CCOC(=O)c1c(C)[nH]c(C)c1-c1ccccc1OC
1%	Cn1cccc1Cc1nnc(SCC(=O)N2CCN(c3ccccc3)CC2)n1-c1ccc(F)cc1
-7%	COc1ccccc1C(CC(=O)Nc1nccs1)c1ccco1 (centres undefined)
-3%	CC(C)CC(NC(=O)C1CCC(C)CC1)C(=O)Nc1cccnc1 (centres undefined)
-16%	COc1cc2[nH]ccc(=O)c2cc1OC
-17%	CC(=O)Nc1nc2c(c3c1c(=O)oc1ccccc13)CCCCC2
0%	O=C(NC1CCCCC1)N1CCCC(c2nc3ccccc3[nH]2)C1 (centres undefined)
?	O=C(NCCc1ccccc1)c1ccc(-c2ccccc2Cl)o1
-4%	COc1ccccc1C(=O)n1nc(-c2ccco2)nc1N
-9%	Cc1ccc(Cn2ncc3c(N4CCCC4)ncnc32)cc1
-11%	O=C1c2cccnc2C(=O)N1Cc1ccc(Cl)cc1
-8%	COC(=O)[C@@]1(Cc2ccc(OC)cc2)[C@H]2c3cc(C(=O)N4CCCC4)n(CCc4c[nH]c5cc(F)ccc45)c3C[C@H]2CN1C(=O)c1ccccc1
-4%	O=C(CS(=O)(=O)c1cccc(Cl)c1)Nc1ccccc1Cl
-5%	COc1ccc(-n2cnnc2SCC(=O)N(C)C2CCS(=O)(=O)C2)cc1 (centres undefined)
-12%	CC(C)C[C@H]1C(=O)N2CCC[C@H]2[C@]2(O)O[C@](NC(=O)[C@@H]3C=C4c5cccc6[nH]c(Br)c(c56)C[C@H]4N(C)C3)(C(C)C)C(=O)N12
-4%	CCOC(=O)CC1C(=O)NCCN1C(=O)NC1CCCCC1 (centres undefined)
-24%	Cc1noc(C)c1COC(=O)c1ccc2c(c1)OCO2
-3%	CCCCN1C2=NCCCN2c2cc(C)c(C)cc21
-21%	CCOC(=O)C1CCCN(S(=O)(=O)c2ccc(Br)s2)C1 (centres undefined)
-4%	COCc1cc(/C=N\NC(=O)Cc2ccc(OC)cc2)ccc1OC
-28%	COc1cc2cc(C#N)c(SCC(=O)N3CCOCC3)nc2cc1OC
-8%	Cc1cccc(OCCSc2cc(C)nc(N)n2)c1
-9%	CCCC(c1nnnn1Cc1ccc(F)cc1)N1CCN(C2CCCCC2)CC1 (centres undefined)
-17%	CS(=O)(=O)Nc1nnc(SCC(=O)N(c2ccccc2)c2ccccc2)s1
-3%	O=C(CCN1C(=O)c2ccccc2C1=O)Nc1ccc(F)cc1F
-7%	CC1CCCN(S(=O)(=O)c2ccc(NC(=O)CN3CCN(C)CC3)cc2)C1 (centres undefined)
-12%	CCC(=O)Nc1ccc(OC)cc1OC
-10%	CN(C(=O)COC(=O)CNC(=O)C12CC3CC(CC(C3)C1)C2)C1CCS(=O)(=O)C1 (centres undefined)
-30%	COC(=O)C1=C(C)N(CCCC(=O)O)C(=O)NC1c1cc2c(cc1[N+](=O)[O-])OCO2 (centres undefined)
-5%	CC(C)c1nnc(NC(=O)CCCCCN2C(=O)C3C4C=CC(C4)C3C2=O)s1 (centres undefined)
-25%	Cc1ccc(N2CCN(C3=NC(=O)/C(=C\c4cccs4)S3)CC2)cc1
2%	O=C1C2C3c4ccccc4C(c4ccccc43)[C@@H]2c2nc3ccccc3n21 (some centres undefined)
-7%	O=C(CCNc1cccc(Cl)c1)c1ccco1
-11%	Cc1c(NC(=O)c2c(NC(=O)CNC3CC3)sc3c2CCCC3)c(=O)n(-c2ccccc2)n1C
?	Cc1ccnc(NC(=O)/C=C/c2ccccc2Cl)c1
-19%	O=C(COC(=O)c1ccccc1C(=O)c1ccccc1)Nc1ccc(SC(F)F)cc1
-23%	Cc1ccc(-n2ncc3c(=O)[nH]c(SCC(=O)N4CCCCC4)nc32)cc1
-12%	COc1cc2c(cc1OC)C(c1cc(OC)c(OC)c(OC)c1)NCC2 (centres undefined)
-4%	CN(Cc1ccccc1)C(=O)c1ccccc1NC(=O)c1ccccc1
-16%	Cn1c(=O)c(CCc2ccccc2)nc2cnc(Oc3ccccc3)nc21
-13%	CCCOc1ccc(C(=O)N2CC3(CC(c4cccc(NC(=O)[C@@H]5CCC(=O)N5)c4)=NO3)C[C@H]2C(=O)NC2(C(N)=O)CC2)cc1 (some centres undefined)
-18%	CCn1c(-c2ccc(OC)c(OC)c2)n[nH]c1=S
-13%	COC(=O)c1cc(=O)n(CCc2ccc(OC)cc2)c(=Nc2ccc(F)c(Cl)c2)s1
-13%	CC(C)CNC(=O)c1c(N)n(/N=C/c2ccccn2)c2nc3ccccc3nc12
-8%	CC(C)c1nn2c(=O)cc(O)nc2s1
1%	COCCNC(=O)C(c1ccccc1C)N(C(=O)Cn1nnc2ccccc21)c1cccnc1 (centres undefined)
-19%	CCC(=O)Nc1c(C)cc(C)cc1Cl
-8%	COc1cccc(NC(=O)N(Cc2cc3cc(C)cc(C)c3[nH]c2=O)CC2COCCO2)c1 (centres undefined)
?	CCN(CC)c1ccc(-c2nn3c(-c4n[nH]c5c4CCC5)nnc3s2)cc1
-10%	COC(=O)Oc1ccc(/C=C/C(=O)OC(C)C)cc1OC(=O)OC
1%	Cc1c(Cl)cnc(NC(=O)CSc2nnc(C)n2Cc2ccccc2)c1Cl
?	Cc1cc(C)c2c(n1)nn1c(N3CCN(Cc4ccccc4)CC3)cc(C)nc21
-6%	Cc1ccccc1N=C1NC(=O)CS1

# Next part.
HPGD block	Structure
-9%	COc1ccccc1CNC(=O)CCNC(=O)Cn1cnc2ccccc2c1=O
-24%	COc1cc(/C=N/n2c(C)nnc2C)cc(OC)c1OC
-7%	C=CCn1c(SCC(=O)NC2CCS(=O)(=O)C2)nc2sc(CC)cc2c1=O (centres undefined)
?	CS(=O)(=O)Nc1ccccc1C(=O)Nc1cccc(Cl)c1
?	O=C1c2cnc3nc(SCc4ccc(Cl)cc4)nn3c2CC2c3ccccc3CCN12 (centres undefined)
-8%	CC(=O)N(c1ccc(Cl)cc1)c1c[nH]c2ccccc12
-13%	Cc1cc(Cl)c(OCCCn2ccnc2)c(Br)c1
-8%	CCCNC1=CC(=O)CC(C)(C)C1
-5%	CCCCCCn1c(CN2CCCC(C)C2)nc2c1c(=O)n(C)c(=O)n2C (centres undefined)
4%	CC(=O)Nc1ccc(S(=O)(=O)N2CCNC(=O)CC2)cc1
?	CCCc1cc(=O)[nH]c(SCC(=O)c2cc(C)n(C)c2C)n1
-12%	CCOc1ccccc1N1CCN(C(=O)CCCc2nc3ccccc3s2)CC1
-18%	CN(Cc1ccccc1)C(=O)c1ccc([N+](=O)[O-])o1
-12%	O=C(N1CCN(c2ccc(F)cc2)CC1)C12CC3CC(CC(C3)C1)C2
-12%	O=C(Nc1nc(-c2nc3ccccc3s2)cs1)C1CC1
-12%	COc1ccc(Nc2nc3ccccc3nc2C)cc1

# Screening results from PubChem.
